Compound activity deposited in PubChem by National Center for Advancing Translational Sciences (NCATS).
NS1 function inh: influenza NS1 inhibition; actives 0.4% (n = 270,000); Potency, µM (top dose mostly 46.1 µM), without a hit: at the top dose activity, positive = more growth; S. cerevisiae slowed by influenza A NS1, growth recovery by OD600; AID 2326; active means well fitted rising curve with a large enough effect; inconclusive means small, poorly fitted or top-dose-only effect; inactive means no such curve, though single readings can be large or run the other way; further: nearly all actives have a fitted effect of over 50% in size
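Growth recovery, yeast-based: influenza A NS1 expressed in S. cerevisiae causes slow growth, and suppressors are detected by OD600. The parent strain without NS1 is used as positive control.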
2A StopGo: lowers the luciferase signal of an FMDV 2A StopGo reporter | actives 1.2% (n = 410,000) | human cells with a luciferase reporter of 2A StopGo recoding; control for the full effect not named in the record | Potency, µM (titrated, usually from 57.9 µM), inactives show top-dose signal change, negative = less light; active = well fitted falling curve with a large enough effect; inconclusive = small, poorly fitted or top-dose-only effect; inactive = no such curve, though single readings can be large or run the other way; tested in HEK293T cells; further: on the % scale 0 is the no-effect control and ±100 the full control effect; nearly all actives have a fitted effect of over 45% in size; luciferase light after 4 h
MARV entry inh: Marburg virus entry inhibition | Marburg virus pseudotyped entry inhibition, cell reporter; control for the full effect not named in the record; about a third of the inactives were read at about 46 µM | Potency, µM (doses to about 37.8 µM), without a hit: at the highest dose activity change, negative = inhibition, most hits filed as inhibitors | actives 1.8% (n = 300,000) | AID 540276; active = well fitted inhibition curve with a large enough effect; inconclusive = small, poorly fitted or top-dose-only effect, or effect the other way; inactive = flat fitted curve, though single readings scatter; tested in HEK293 cells; about a fifth of its hits are not listed in these tables; further: on the % scale 0 is the no-effect control and ±100 the full control effect; luciferase read-out
Lassa entry inh: blocks Lassa virus binding to or entry into cells. Lassa virus pseudotype entry inhibition, cell reporter; control for the full effect not named in the record. Potency, µM (highest dose often 37.9 µM), inactives show top-dose activity change, negative = inhibition, actives largely listed as inhibitors. actives 1.2% (n = 300,000); active means well fitted inhibition curve with a large enough effect; inconclusive means small, poorly fitted or top-dose-only effect, or effect the other way; inactive means flat fitted curve, though single readings scatter; tested in HEK293 cells; further: on the % scale 0 is the no-effect control and ±100 the full control effect; nearly all actives have a fitted effect of over 50% in size; luciferase read-out
RE007 growth inh: less growth of the S. pombe RE007 Vpr strain | S. pombe RE007 Vpr strain, BacTiter-Glo ATP luminescence, 24 h; control for the full effect not named in the record | Potency, µM (top dose mostly 92.2 µM), for the others: at the highest dose activity change, negative = less growth | actives 0.21% (n = 360,000) | AID 651644; active = well fitted falling curve with a large enough effect; inconclusive = small, poorly fitted or top-dose-only effect; inactive = no such curve, though single readings can be large or run the other way;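 further: on the % scale 0 is the no-effect control and ±100 the full control effect; nearly all actives have a fitted effect of over 50% in size; the assay follows cell death caused by Vpr and the record does not say whether a fall means rescue or toxicity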
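Fission yeast strain RE007, carrying one chromosomally integrated HIV-1 vpr copy, was seeded at OD 0.01 in PMG+AL medium with 23 nL pinned compound. After 24 h at 30 °C and 99% humidity, viability was read by BacTiter-Glo luminescence.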
Cruzain inh Det: inhibitors of Trypanosoma cruzi cruzain with detergent; Potency, µM, inactives show max response, negative = inhibition, hits mostly inhibitors; actives 0.43% (n = 200,000); P25779; purified cruzain, Z-FR-AMC fluorescence, 0.01% Triton;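 further: plate controls were neutral wells for no effect and buffer without enzyme for full effect; nearly all actives have a fitted effect of over 40% in size; top concentration of the series not given in the record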
Target sequence (P25779 123-467 limits assumed): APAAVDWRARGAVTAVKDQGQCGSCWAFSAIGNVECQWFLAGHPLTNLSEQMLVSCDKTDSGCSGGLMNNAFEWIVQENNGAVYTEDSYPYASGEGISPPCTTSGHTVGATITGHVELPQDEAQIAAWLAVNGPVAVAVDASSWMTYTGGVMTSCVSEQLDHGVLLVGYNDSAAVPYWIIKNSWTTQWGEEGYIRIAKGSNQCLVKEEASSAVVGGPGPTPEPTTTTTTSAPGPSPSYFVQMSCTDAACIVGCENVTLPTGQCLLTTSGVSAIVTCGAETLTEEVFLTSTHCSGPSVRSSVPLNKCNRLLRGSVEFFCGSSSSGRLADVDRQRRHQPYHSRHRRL
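Purified cruzain (1.5 nM final) was preincubated with compounds for 15 min at room temperature in 100 mM sodium acetate pH 5.5, 5 mM DTT, 0.01% Triton X-100. Reaction started with 2 uM Z-FR-AMC; AMC fluorescence change over 60 s gave activity.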
Cruzain noTriton: blocks cruzain activity in detergent-free assay. actives 2.3% (n = 200,000). P25779. purified cruzain, Z-FR-AMC fluorescence, no detergent. Potency, µM, without a hit: max response, negative = inhibition, hits mostly inhibitors;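 further: plate controls were enzyme without inhibitor for no effect and buffer without enzyme for full effect; nearly all actives have a fitted effect of over 40% in size; top concentration of the series not given in the record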
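Detergent-free condition (0.00005% Triton X-100) in acetate buffer pH 5.5 with DTT. 1.5 nM enzyme and compound were pre-mixed 15 min, then 2 uM Z-FR-AMC substrate added; reaction progress from fluorescence change between first and third reads (60 s).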
SARS PLP yeast: SARS-CoV PLP inhibition in yeast | S. cerevisiae expressing SARS-CoV PLpro, growth rescue; control for the full effect not named in the record | Potency, µM (top dose mostly 32.9 µM), for inactives: at the highest dose activity, positive = growth rescue | actives 0.19% (n = 330,000) | AID 485353; active means well fitted rising curve with a large enough effect; inconclusive means small, poorly fitted or top-dose-only effect; inactive means no such curve, though single readings can be large or run the other way; further: 0% is about no effect; nearly all actives have a fitted effect of over 55% in size; growth read by luminescence after 48 h
Numbers without * were called inactive; ? = inconclusive; . = not tested or not shown; & = joins results of further samples; [ ] = dose if it differs, or a comment. Unless noted, the call rests on the fitted dose curve; in most records, active means well fitted curve in the direction sought with a large enough effect; inconclusive means small, poorly fitted or top-dose-only effect, or another doubt; inactive means no such curve, though single readings can be large; an effect the other way counts as inactive or inconclusive. Potency means the concentration at half of the fitted maximal effect. An unsorted share of the library (roughly 4.6% active in at least one column).

No.	Compound	NS1 function inh	2A StopGo	MARV entry inh	Lassa entry inh	RE007 growth inh	Cruzain inh Det	Cruzain noTriton	SARS PLP yeast
1	COc1ccc(/C=N/NC(=O)c2[nH]c(C)c(C(=O)N/N=C/c3ccc(OC)cc3)c2C)cc1	16%	?	?	?	-20%	-12%	11%	2%
2	CS(=O)(=O)N1CCc2cc(C(=O)Nc3ccccc3Br)ccc21	-8%	36%[activator]	.	.	-4%	.	.	-3%
3	CCCCn1c(NC(=O)c2ccco2)c(C(=O)OCC)c2nc3ccccc3nc21	-38%	.	-25%	-9%	-7%	-20%	?	1%
4	CCc1ccc(-n2nc(C)c3c(C(=O)Nc4cc(C)c(Cl)cc4OC)cc(C)nc32)cc1	.	-4%	.	23%[46.1 µM]	.	-0.6%	-5%	.
5	CC12CCC(C(=O)NC3CCCCC3)([C@H](Br)C1=O)C2(C)C (stereo partly drawn)	1%	-9%	.	.	9%	.	.	0%
6	Cn1c(SCC(=O)c2c(N)n(C)c(=O)n(C)c2=O)nnc1-c1ccccc1F	.	-14%	12%[46.1 µM]	-4%	-11%	.	.	0%
7	COc1cc(OC)nc(Oc2cccc(Cl)c2C)n1	.	-10%	2%[46.1 µM]	19%	-6%	.	.	.
8	Cc1ccc(-c2nnc3ccc(SCC(=O)Nc4cc(C)on4)nn23)cc1	-3%	14%	-10%	9%	3%	1.5%	?	10%
9	CC1(C)NC(=O)N(CC(O)Cn2c3ccccc3c3ccccc32)C1=O (stereo not drawn)	0%	-19%	.	.	-7%	.	.	0%
10	Cc1occc1-c1nnc(SCC(=O)NCc2cccs2)n1-c1ccc(F)cc1	-40%	-14%	3%[46.1 µM]	-9%	-4%	1.8%	9%	-7%
11	Cc1noc(C)c1C(=O)Nc1ccc(S(=O)(=O)N2CCCCC2)cc1	4%	-24%	-17%	-15%	-19%	.	.	-6%
12	Cc1ccc2nc(C3CCCN(C(=S)Nc4ccccc4C)C3)[nH]c2c1 (stereo not drawn)	-2%	.	-10%	-25%	-9%	?	-11%	3%
13	COC(=O)c1c(N2C(=O)[C@H]3[C@@H](C2=O)[C@]2(C(=O)Nc4c2ccc(C)c4C)N2CCC[C@@H]32)sc(C)c1C	16%	?	?	-11%	.	-11%	?	-9%
14	Cc1ccc(CNC(=O)c2cncc(Br)c2)cc1	-4%	0%	4%[46.1 µM]	-10%[46.1 µM]	8%	.	.	10%
15	CC(C)C(=O)Nc1nnc(-c2ccccc2)o1	2%	7%	.	.	-1%	1.9%	1%	-5%
16	CCCNS(=O)(=O)c1ccc(OCC(=O)N2CCCC2)cc1	5%	-2%	-24%[46.1 µM]	17%	?	.	.	1%
17	CS(=O)(=O)N(CC(=O)N1CCc2ccccc2C1)c1ccc(Br)cc1	.	-10%	8%[14.2 µM]	-2%	-9%	.	.	.
18	O=C(Nc1cccnc1Cl)c1cc(-c2ccc(F)cc2)on1	-12%	51%[activator]	3%[46.1 µM]	4%	-3%	.	.	1%
19	O=c1c(NCCc2ccccc2)c(-c2ccccc2)c1=O	-2%	-7%	-12%[46.1 µM]	11%[46.1 µM]	-1%	.	.	2%
20	COC(=O)NCCc1cc(OC)c(OC)cc1S(=O)(=O)N1CC(=O)Nc2ccccc21	1%	2%	-15%[46.1 µM]	-8%[46.1 µM]	0%	.	.	4%
21	COc1cc(C(=O)NC(C)CCn2cccn2)ccc1OC1CCN(C(C)=O)CC1 (stereo not drawn)	8%	-1%	2%	-1%	14%	.	.	-9%
22	NC(=O)c1ccccc1NC(=O)c1ccc2ccccc2c1	-12%	-16%	?	?	-11%	.	.	-1%
23	COCCN1C(=O)N(c2cccc(OC)c2)C(=O)C1CC(=O)Nc1ccccc1 (stereo not drawn)	.	-5%	?	-12%[46.1 µM]	.	-2.1%	-4%	.
24	CCN(CC)c1ccc(N=Cc2c(O)n(Cc3ccccc3)c(=O)[nH]c2=O)cc1	?	-18%&-6%	-21%&1%	?	-22%&-3%	7.2%&-5.5%	?	-4%&6%
25	COc1ccc(-c2cc(C)nc3c(-c4ccccc4)cnn23)cc1	5%	?	-27%[46.1 µM]	?	-11%	.	.	0%
26	COc1ccccc1NC(=O)c1ccc(COc2ccccc2Br)o1	1%	-7%	.	.	-13%	.	.	-1%
27	Cc1ccc(NS(=O)(=O)c2ccc3[nH]c(=O)ccc3c2)cc1N(C)C	.	7%	.	8%[46.1 µM]	.	-3.8%	-9%	.
28	CC(=O)N(C)c1ccc(C(O)(C(F)(F)F)C(F)(F)F)cc1	.	-25%	25%[46.1 µM]	7%[46.1 µM]	11%	.	.	1%
29	COc1ccccc1N1N=C(c2cccs2)CC1c1ccccc1 (stereo not drawn)	27%	-5%	-3%	6%	0%	-11%	?	-13%
30	Cc1nc2ccc(NC(=O)c3cc(S(=O)(=O)N(C)c4ccccc4)ccc3Cl)cc2s1	?	?	?	-29%	3%	-1.4%	?	0%

One compound at a time (already shown). Screens in order: NS1 function inh	2A StopGo	MARV entry inh	Lassa entry inh	RE007 growth inh	Cruzain inh Det	Cruzain noTriton	SARS PLP yeast
Listed for CC1(C)NC(=O)N(CC(O)Cn2c3ccccc3c3ccccc32)C1=O (stereo not drawn) → 0%	-19%	.	.	-7%	.	.	0%
Listed for CC12CCC(C(=O)NC3CCCCC3)([C@H](Br)C1=O)C2(C)C (stereo partly drawn) → 1%	-9%	.	.	9%	.	.	0%

Later entries:
No.	Compound	NS1 function inh	2A StopGo	MARV entry inh	Lassa entry inh	RE007 growth inh	Cruzain inh Det	Cruzain noTriton	SARS PLP yeast
31	O=C(O)C1(c2ccccc2)CCN(S(=O)(=O)c2ccccc2)CC1	4%	4%	-4%[46.1 µM]	.	0%	.	.	3%
32	CCOc1ccc(NC(=O)CN(C)C(=O)c2ccc(N3CCCCCC3)c([N+](=O)[O-])c2)cc1OCC	.	4%	25%	0%	-4%	.	.	-8%
33	O=C(C1CCCO1)N1CCN(C(=S)Nc2ccccc2)CC1 (stereo not drawn)	13%	-26%	3%	-1%	-15%	3.7%	-11%	29%
34	OCCNc1nc(N2CCCC2)nc(N2CCCC2)n1	-11%	-14%	-12%	8%	-6%	1.6%	-5%	-33%
35	CC(C)=CCN1CCN(Cc2ccc3nsnc3c2)CC1CCO (stereo not drawn)	5%	-5%	-1%	5%	-8%	.	.	0%
36	c1ccc(-n2ncc3c(N4CCN(c5ccccn5)CC4)nc(N4CCCCCC4)nc32)cc1	-4%	1%	?	4%	7%	-0.3%	?	3%
37	CSC(=NC#N)N1CCN(c2ccc(Cl)cc2)CC1	-30%	7%	13%	18%	11%	-3.7%	5%	-24%
38	CC(C)c1ccc(NC(=S)NNc2ccc(Cl)c(C(=O)O)c2)cc1	?	41%[activator]	.	.	8%	.	.	4%
39	CC(C)(C)NC(=O)COC(=O)c1ccc2c(c1)C(=O)N(Cc1ccco1)C2=O	-13%	-2%	2%[46.1 µM]	-9%	4%	.	.	1%
40	CN(C(=O)COc1ccc(Cl)cc1Br)C1CCCCC1	-28%	22%	?	5%	-2%	.	.	-6%
41	Cc1cc(-c2cccc([N+](=O)[O-])c2)nc2ccccc12	-12%	16%	17%	?	3%	-5.5%	-13%	11%
42	CN(C)c1ccc(C(=O)NCc2ccc3c(c2)OCO3)cc1	10%	68%[activator]	?	-11%	0%	.	.	3%
43	Cc1sc2cc(-c3cccc([N+](=O)[O-])c3)c(-c3cccc([N+](=O)[O-])c3)c[n+]2c1C	0%	-3%	-3%	0%	-26%	-8.1%	-8%	-8%
44	Cn1cccc1Cc1nnc(SCC(=O)Nc2ccc(F)cc2)n1CCc1ccccc1	?	12%	-23%&-23%	11%	-7%	-4.3%	25%	8%
45	O=C1c2ccccc2C(=O)C1(c1ccccc1)N1CCN(c2cccc(Cl)c2)CC1	.	-22%	-6%[46.1 µM]	-18%[46.1 µM]	.	1.8%	-25%	.
46	CCCOc1ccc(C(=O)Nc2cc3nn(-c4ccc(CC)cc4)nc3cc2C)cc1	.	31%[activator]	-22%[46.1 µM]	18%[46.1 µM]	.	-0.6%	-14%	.
47	CCn1c(=O)c2cc(C(=O)NCCCN3CCN(C)CC3)sc2c2ccccc21	.	6%	-12%[46.1 µM]	-1%[46.1 µM]	.	-5.7%	-12%	.
48	Clc1ccc(SCCn2cncn2)cc1	-4%	0%	-10%[46.1 µM]	-12%	-15%	2.9%	4%	2%
49	CN(CC(=O)NCc1ccccn1)S(=O)(=O)c1cc(Cl)ccc1Cl	.	4%	25%	-2%	-1%	.	.	.
50	Cc1oc2ncn(CC(C)C)c(=O)c2c1C(=O)NCCc1ccc(Cl)cc1	.	-4%	.	-6%[46.1 µM]	.	-0.8%	-15%	.
51	O=C(COC(=O)c1ccc(Cl)nc1)NCCC1=CCCCC1	.	4%	18%[46.1 µM]	11%	8%	.	.	-2%
52	COCC(C)n1c(C)cc(C(=O)CN2C(=O)NC3(CCCCC3C)C2=O)c1C (stereo not drawn)	-5%	39%[activator]	?	15%	3%	1.0%	4%	0%
53	CCc1ccc(NC(=O)CCc2nc3cccnc3n2Cc2ccc(OC)cc2)cc1	-1%	?	?	-24%	12%	4.2%	12%	1%
54	O=C1CN(C(=O)c2ccccn2)c2ccccc2N1	-3%	-3%	9%	1%	22%	3.1%	14%	8%
55	COc1ccccc1NC(=O)C1CCN(C(=O)C2CC(=O)N(c3ccc(C)cc3)C2)CC1 (stereo not drawn)	-3%	3%	2%[46.1 µM]	-7%[46.1 µM]	8%	.	.	-1%
